Bioassay records from PubChem.
Env fusion inh = HIV envelope-mediated fusion inhibition; 360,000 tested, 1.1% active; AID 651610; inhibition, % at 12.3 µM; HeLa-JRFL Env/CEM21 cell fusion, luciferase;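 active means mean replicate inhibition score of at least 50 and every replicate individually at or above 50; inconclusive means only one of the two criteria met; inactive means mean below 50 and not all replicates reaching 50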;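 further: 0% = plate neutral controls and 100% = maraviroc near 300 nM; one replicate is shown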
Yeast UUG start = modulators of start codon recognition fidelity in yeast | activity score, % at 18.7 µM | S. cerevisiae UUG-firefly luciferase reporter, luminescence/redox ratio | 350,000 tested, 0.13% active;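 active means replicate mean at a twofold rise or more, about +100% in these data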;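 further: firefly luciferase made from a UUG start codon reports start codon fidelity; reporter light over untreated wells divided by growth signal over untreated wells; some hits fall short of that in this replicate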
Active calls of the source: *; ? = inconclusive; [ ] = remark or other dose.

SMILES | Env fusion inh | Yeast UUG start
C[C@@H]1CN([C@@H](C)CO)C(=O)c2cc(-c3ccc(F)cc3)cnc2O[C@H]1CN(C)C(=O)CN(C)C | -10[16.7 µM] | 23
C[C@@H]1CN([C@@H](C)CO)C(=O)c2cc(C#Cc3cccc(F)c3)cnc2O[C@H]1CN(C)Cc1ccccn1 | 3[16.7 µM] | -8
C[C@@H]1CN([C@@H](C)CO)C(=O)c2cc(NS(=O)(=O)c3ccccc3)ccc2O[C@@H]1CN(C)Cc1ccc(Oc2ccccc2)cc1 | 2[16.7 µM] | 6
C[C@@H]1CN([C@H](C)CO)C(=O)c2cc(NS(=O)(=O)c3ccc(F)cc3)ccc2O[C@@H]1CN(C)C(=O)Nc1ccc(F)cc1 | 15[16.7 µM] | 5
C[C@H](CO)N1C[C@H](C)[C@H](CN(C)S(=O)(=O)c2ccc(F)cc2)OCCCC[C@H](C)Oc2ccc(NC(=O)Nc3ccc(C(F)(F)F)cc3)cc2C1=O | ? | -15
C[C@@H]1CCCCO[C@@H](CN(C)Cc2ccncc2)[C@@H](C)CN([C@H](C)CO)C(=O)c2cc(NC(=O)NC3CCCCC3)ccc2O1 | 2[16.7 µM] | -18
C[C@@H]1CN([C@H](C)CO)S(=O)(=O)c2ccc(C#C[C@@H](C)O)cc2O[C@H]1CN(C)C(=O)C1CC1 | -16[16.7 µM] | -8
C[C@@H]1CN([C@@H](C)CO)C(=O)c2cc(NC(=O)Nc3ccc4c(c3)OCO4)ccc2O[C@@H](C)CCCCO[C@@H]1CN(C)C | -30[16.7 µM] | 22
Cc1ccc(-c2ccc3c(c2)O[C@H](CN(C)C(=O)Nc2ccc(F)cc2)[C@@H](C)CN([C@H](C)CO)S3(=O)=O)cc1 | -11[16.7 µM] | -14
C[C@H](CO)N1C[C@H](C)[C@@H](CN(C)Cc2ccc3c(c2)OCO3)Oc2c(NC(=O)c3cnccn3)cccc2C1=O | -12[16.7 µM] | 4
Cc1noc(C)c1S(=O)(=O)N(C)C[C@@H]1OCCCC[C@@H](C)Oc2ccc(NC(=O)NC(C)C)cc2C(=O)N([C@@H](C)CO)C[C@@H]1C | -5[16.7 µM] | 22
Cc1ccc(S(=O)(=O)N(C)C[C@H]2OCCCC[C@H](C)Oc3ccc(NS(=O)(=O)c4c(C)noc4C)cc3C(=O)N([C@H](C)CO)C[C@@H]2C)cc1 | -51[16.7 µM] | -19
C[C@@H]1CN([C@@H](C)CO)C(=O)c2cc(-c3ccncc3)cnc2O[C@H]1CN(C)Cc1ccc(Oc2ccccc2)cc1 | -10[16.7 µM] | -6
Cc1noc(C)c1NC(=O)N(C)C[C@@H]1Oc2ncc(C#Cc3ccccc3)cc2C(=O)N([C@H](C)CO)C[C@@H]1C | 4[16.7 µM] | 18
C[C@@H]1CN([C@H](C)CO)C(=O)c2cc(NC(=O)Nc3ccc4c(c3)OCO4)ccc2O[C@H]1CN(C)Cc1ccc(Oc2ccccc2)cc1 | 7[16.7 µM] | -6
CO[C@@H]1CN(C)C(=O)c2cc(NS(=O)(=O)c3cccc(Cl)c3)ccc2OC[C@H](C)NC[C@@H]1C | -5[16.7 µM] | 1
Cc1noc(C)c1NC(=O)Nc1ccc2c(c1)CC(=O)N([C@@H](C)CO)C[C@@H](C)[C@H](CN(C)S(=O)(=O)c1ccc(F)cc1)O2 | -11[16.7 µM] | -2
CCCc1cn(CC[C@@H]2CC[C@@H](NS(=O)(=O)c3ccc(-c4ccccc4)cc3)[C@H](CO)O2)nn1 | 20[16.7 µM] | -6
CO[C@H]1CN(C)C(=O)c2cc(NC(=O)Nc3ccccc3Cl)ccc2OC[C@@H](C)NC[C@H]1C | -2[16.7 µM] | 4
COc1cccc(-c2cnc3c(c2)C(=O)N([C@@H](C)CO)C[C@@H](C)[C@H](CN(C)Cc2cccnc2)O3)c1 | 12[16.7 µM] | -3
C[C@@H]1CN([C@@H](C)CO)C(=O)c2cc(NC(=O)Nc3ccc4c(c3)OCO4)ccc2O[C@@H]1CN(C)C(=O)Nc1ccc2c(c1)OCO2 | 16[16.7 µM] | -3
CC(=O)N(C)C[C@H]1Oc2ncc(C#Cc3cccc(F)c3)cc2C(=O)N([C@@H](C)CO)C[C@H]1C | -2[16.7 µM] | 15
COCC(=O)N1[C@@H](C#N)[C@@H](c2ccc(-c3cccc(F)c3)cc2)[C@@H]1CO | 2[16.7 µM] | 2
Cc1noc(C)c1NC(=O)Nc1ccc2c(c1)C(=O)N([C@@H](C)CO)C[C@H](C)[C@@H](CN(C)C(=O)Nc1ccc(C(F)(F)F)cc1)OCCCC[C@H](C)O2 | 21[16.7 µM] | 2
O=C(C[C@@H]1C=C[C@H](NC(=O)CC2CC2)[C@@H](CO)O1)NCc1ccc(Cl)cc1 | 0[16.7 µM] | -12
C[C@@H]1CN([C@@H](C)CO)C(=O)Cc2cc(NC(=O)Nc3ccc4c(c3)OCO4)ccc2O[C@@H]1CN(C)Cc1ccc(C(=O)O)cc1 | -11[16.7 µM] | -9
CC(=O)N(C)C[C@@H]1Oc2cc(C#Cc3cccc(F)c3)ccc2S(=O)(=O)N([C@H](C)CO)C[C@H]1C | 19[16.7 µM] | 2
C[C@H](CO)N1C[C@H](C)[C@@H](CN(C)S(=O)(=O)c2ccccc2)Oc2c(NS(C)(=O)=O)cccc2C1=O | 7[16.7 µM] | 7
Cc1noc(C)c1S(=O)(=O)N(C)C[C@H]1Oc2ccc(NS(=O)(=O)c3cn(C)cn3)cc2CC(=O)N([C@@H](C)CO)C[C@H]1C | -17[16.7 µM] | -8
C[C@H](CO)N1C[C@H](C)[C@H](CN(C)S(=O)(=O)c2ccc(F)cc2)OCCCC[C@H](C)Oc2ccc(NC(=O)Cc3ccccc3)cc2C1=O | 11[16.7 µM] | 1
C[C@H]1CN([C@@H](C)CO)S(=O)(=O)c2ccc(-c3ccncc3)cc2O[C@@H]1CN(C)C(=O)Nc1ccc(C(F)(F)F)cc1 | 3[16.7 µM] | -11
COc1ccccc1-c1cnc2c(c1)C(=O)N([C@H](C)CO)C[C@@H](C)[C@@H](CN(C)Cc1ccc(C(=O)O)cc1)O2 | -17[16.7 µM] | 4
C[C@@H]1CN([C@@H](C)CO)C(=O)Cc2cc(NC(=O)C3CC3)ccc2O[C@@H]1CN(C)S(=O)(=O)c1ccc(F)cc1 | -7[16.7 µM] | 0
C[C@H]1CN([C@@H](C)CO)S(=O)(=O)c2ccc(Br)cc2O[C@@H]1CN(C)S(C)(=O)=O | 33[16.7 µM] | 15
Cc1ccc(S(=O)(=O)N(C)C[C@@H]2Oc3ccc(NC(=O)Cc4cn(C)c5ccccc45)cc3C(=O)N([C@@H](C)CO)C[C@H]2C)cc1 | -4[16.7 µM] | -1
COCC#Cc1cnc2c(c1)C(=O)N([C@@H](C)CO)C[C@@H](C)[C@H](CN(C)Cc1ccc3c(c1)OCO3)O2 | -21[16.7 µM] | 4
O=C(C[C@H]1CC[C@H](NC(=O)C2CCC2)[C@@H](CO)O1)NC1CCCCC1 | 14[16.7 µM] | 18
CO[C@H]1CN(C)C(=O)c2ccc(NC(=O)c3ccccc3F)cc2OC[C@@H](C)NC[C@@H]1C | -9[16.7 µM] | -4
COc1ccc(NC(=O)Nc2ccc3c(c2)CC(=O)N([C@@H](C)CO)C[C@@H](C)[C@@H](CN(C)C(=O)Nc2c(C)noc2C)O3)cc1 | 0[16.7 µM] | -25
COc1ccccc1NC(=O)N[C@H]1C=C[C@@H](CC(=O)NCc2ccc(Cl)c(Cl)c2)O[C@@H]1CO | 28[16.7 µM] | 33
O=C(C[C@@H]1CC[C@H]2[C@@H](COC[C@@H](O)CN2Cc2ccc(Cl)cc2)O1)NCCc1ccccc1 | 20[16.7 µM] | -11
CO[C@@H]1CN(C)C(=O)c2ccc(NC(=O)c3cc(C)on3)cc2OC[C@@H](C)N(C(C)=O)C[C@H]1C | -6[16.7 µM] | -5
CCNC(=O)C[C@H]1CC[C@@H]2[C@H](COc3ccc(NC(=O)Cc4ccccc4)cc3C(=O)N2C)O1 | 0[16.7 µM] | -24
CO[C@H]1CN(C)C(=O)c2ccc(NC(=O)Nc3c(C)noc3C)cc2OC[C@H](C)N(C)C[C@H]1C | 3[16.7 µM] | -4
C[C@@H]1CN([C@@H](C)CO)S(=O)(=O)c2ccc(-c3cccc(C#N)c3)cc2O[C@@H]1CN(C)C(=O)c1ccncc1 | -22[16.7 µM] | -7
CC(=O)N(C)C[C@@H]1Oc2cc(-c3ccccc3F)ccc2S(=O)(=O)N([C@@H](C)CO)C[C@H]1C | -26[16.7 µM] | -4
C[C@@H]1CN([C@@H](C)CO)C(=O)Cc2cc(NC(=O)Nc3cccc4ccccc34)ccc2O[C@@H]1CN(C)S(=O)(=O)c1ccc(F)cc1 | 13[16.7 µM] | 6
O=C(NCC[C@@H]1CC[C@H](NS(=O)(=O)c2cccc(F)c2)[C@@H](CO)O1)C1CCCCC1 | 21[16.7 µM] | -13

Entries listed so far that have a cyano group (two):
SMILES | Env fusion inh | Yeast UUG start
COCC(=O)N1[C@@H](C#N)[C@@H](c2ccc(-c3cccc(F)c3)cc2)[C@@H]1CO | 2[16.7 µM] | 2
C[C@@H]1CN([C@@H](C)CO)S(=O)(=O)c2ccc(-c3cccc(C#N)c3)cc2O[C@@H]1CN(C)C(=O)c1ccncc1 | -22[16.7 µM] | -7

Nothing new here: an excerpt of the list.
SMILES | Env fusion inh | Yeast UUG start
C[C@@H]1CN([C@@H](C)CO)S(=O)(=O)c2ccc(-c3cccc(C#N)c3)cc2O[C@@H]1CN(C)C(=O)c1ccncc1 | -22[16.7 µM] | -7
CC(=O)N(C)C[C@@H]1Oc2cc(-c3ccccc3F)ccc2S(=O)(=O)N([C@@H](C)CO)C[C@H]1C | -26[16.7 µM] | -4
C[C@@H]1CN([C@@H](C)CO)C(=O)Cc2cc(NC(=O)Nc3cccc4ccccc34)ccc2O[C@@H]1CN(C)S(=O)(=O)c1ccc(F)cc1 | 13[16.7 µM] | 6
O=C(NCC[C@@H]1CC[C@H](NS(=O)(=O)c2cccc(F)c2)[C@@H](CO)O1)C1CCCCC1 | 21[16.7 µM] | -13

Following part.
SMILES | Env fusion inh | Yeast UUG start
CC(C)NC(=O)Nc1ccc2c(c1)C(=O)N([C@@H](C)CO)C[C@H](C)[C@@H](CN(C)C(=O)Nc1ccc(F)cc1)O2 | -4[16.7 µM] | -19
CCCC#Cc1ccc([C@H]2[C@@H](C#N)N(C(=O)C3CC3)[C@H]2CO)cc1 | 10[16.7 µM] | 5
Cc1noc(C)c1NC(=O)N(C)C[C@H]1OCCCC[C@@H](C)Oc2ccc(NC(=O)Nc3ccc4c(c3)OCO4)cc2C(=O)N([C@H](C)CO)C[C@@H]1C | 11[16.7 µM] | 9
CC(C)C[C@@H]1NC(=O)[C@H]2C[C@@H](C(=O)NCc3ccc(F)cc3)[C@@H](c3cccc(OCCO)c3)N2C1=O | -6[16.7 µM] | 19
C[C@@H]1CCCCO[C@H](CN(C)C)[C@H](C)CN([C@H](C)CO)C(=O)c2cc(NC(=O)c3ccccc3)ccc2O1 | -12[16.7 µM] | 11
C[C@@H]1CN([C@@H](C)CO)C(=O)c2cc(NS(=O)(=O)c3cn(C)cn3)ccc2O[C@@H](C)CCCCO[C@@H]1CN(C)C(=O)Nc1ccc(F)cc1 | -109[16.7 µM] | -1
C[C@@H]1CN([C@@H](C)CO)C(=O)c2cc(NS(=O)(=O)c3ccccc3)ccc2O[C@H]1CN(C)Cc1ccccc1 | 27[16.7 µM] | 12
CCCNC(=O)N1C[C@H](O)COC[C@H]2O[C@H](CC(=O)N[C@H]3CCN(Cc4ccccc4)C3)CC[C@@H]21 | -47[16.7 µM] | -6
C[C@@H]1CCCCO[C@@H](CN(C)S(=O)(=O)c2cn(C)cn2)[C@@H](C)CN([C@H](C)CO)C(=O)c2cc(NC(=O)NC3CCCCC3)ccc2O1 | 11[16.7 µM] | 6
C/C=C/c1cnc2c(c1)C(=O)N([C@H](C)CO)C[C@H](C)[C@@H](CN(C)C(=O)c1cnccn1)O2 | -6[16.7 µM] | 1
C[C@H](CO)N1C[C@H](C)[C@H](CN(C)C(=O)Nc2ccc(F)cc2)Oc2ccc(NC(=O)Nc3ccc(C(F)(F)F)cc3)cc2C1=O | 4[16.7 µM] | -4
C[C@H]1CN([C@@H](C)CO)C(=O)Cc2cc(NC(=O)NC3CCCCC3)ccc2O[C@@H]1CN(C)C(=O)Nc1ccc(C(F)(F)F)cc1 | -10[16.7 µM] | 4
C[C@@H]1CCCCO[C@@H](CN(C)C(=O)Nc2ccc(F)cc2)[C@H](C)CN([C@H](C)CO)C(=O)c2cc(NS(=O)(=O)c3ccc(Cl)cc3)ccc2O1 | -82[16.7 µM] | -10
Cc1ccc(S(=O)(=O)N(C)C[C@@H]2OCCCC[C@@H](C)Oc3ccc(NC(=O)NC(C)C)cc3C(=O)N([C@H](C)CO)C[C@H]2C)cc1 | 12[16.7 µM] | 4
COc1ccc(CN(C)C[C@H]2Oc3ccc(NC(=O)C4CCCCC4)cc3CC(=O)N([C@H](C)CO)C[C@@H]2C)cc1 | 3[16.7 µM] | 4
C[C@@H]1CCCCO[C@H](CN(C)C(=O)NC2CCCCC2)[C@@H](C)CN([C@H](C)CO)C(=O)c2cc(NC(=O)Nc3ccc4c(c3)OCO4)ccc2O1 | 0[16.7 µM] | 2
C[C@H]1CN([C@@H](C)CO)S(=O)(=O)c2ccc(Br)cc2O[C@H]1CN(C)Cc1ccccn1 | 16[16.7 µM] | -13

The list is partial; rates above refer to the full screens.
